YB-1 expression = YB-1 expression inhibition; delta delta Cp (YB-1 minus CDIP) (concentration not given with the values); U2OS, qRT-PCR YB-1 vs CDIP delta delta Cp, 16 h; stronger effect = higher value; zero = DMSO, each unit about twofold; actives 0.37% (n = 30,000);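 active = delta delta Cp rounded down to an integer at or above 3, about 3 SD of DMSO wells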;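 note: higher means less YB-1 transcript or more CDIP transcript relative to DMSO; stock transfer was 100 nL into about 100 µL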
MITF inh = blocks MITF activity; TRPM1 promoter luciferase, luminescence, 24 h; actives 0.28% (n = 37,000); inhibition, % (concentration not given with the values); AID 2240;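 active = most replicates at 85% or more, or half of them and the mean; inconclusive = half reach 85% but not the mean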;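 note: human melanocyte line stably carrying TRPM1 promoter luciferase reporter; 0% = vehicle wells and 100% = a positive control; the first replicate is given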
PD-1 reverse act = reversal of PD-1 mediated T-cell inhibition | activation, % (concentration not given with the values) | primary human CD4 T cells, PD-L1 beads, CellTiter-Glo 96 h | 29,000 tested, under 10 active;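 active = replicate mean of 50% or more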;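 note: 0% = median vehicle wells and 100% = positive control; 100 nL library stock added to about 50 µL; numbers are from one replicate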
Shh pathway inh = blocks Sonic Hedgehog signaling. Shh-LIGHT2 Gli-luciferase reporter, 30 h. inhibition, % (concentration not given with the values). actives 2.1% (n = 22,000). AID 2313;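 active = replicate mean of 65% or more; inconclusive = mean lower but half the replicates past it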;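 note: pathway switched on by Shh-conditioned medium diluted 1 in 25 in low serum; 100 nL library stock added to about 40 µL; 0% = median of neutral wells and 100% = positive control level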
* marks the source's active call; other numbers are inactive results; u = inconclusive; x = not tested or not shown. The list is partial; the hit share may differ from the screen's.

SMILES	YB-1 expression	MITF inh	PD-1 reverse act	Shh pathway inh
C[C@H]1CN([C@@H](C)CO)C(=O)Cc2cc(NC(=O)Nc3ccc(F)cc3)ccc2O[C@@H]1CN(C)C(=O)Nc1ccc(C(F)(F)F)cc1	-0.33	0	0.7	-47
C[C@@H]1CN([C@@H](C)CO)C(=O)c2cccc(NS(C)(=O)=O)c2O[C@@H]1CN(C)S(=O)(=O)c1cccs1	-0.76	3	1.0	-16
C[C@H]1CN([C@@H](C)CO)C(=O)c2cc(NC(=O)Cc3ccccc3)ccc2O[C@H]1CN(C)S(=O)(=O)c1ccc(F)cc1	0.36	2	-0.9	16
COc1ccc(CN(C)C[C@H]2Oc3ccc(NC(=O)Cn4cnnn4)cc3C(=O)N([C@@H](C)CO)C[C@@H]2C)cc1	0.1	-5	x	8
CC(C)NC(=O)Nc1ccc2c(c1)C(=O)N([C@H](C)CO)C[C@H](C)[C@H](CN(C)S(=O)(=O)c1cccs1)OCCCC[C@@H](C)O2	-0.46	8	0.6	x
Cc1ccc(S(=O)(=O)N(CC(=O)Nc2ccc(C(N)=O)cc2)C2CCCCC2)cc1	x	-22	0.4	x
Cc1cc(N(CC(=O)Nc2cc(C(F)(F)F)ccc2Cl)S(C)(=O)=O)ccc1Br	x	-1	0.4	x
CC(C)NC(=O)N(C)C[C@@H]1OCCCC[C@@H](C)Oc2ccc(NC(=O)Nc3ccc4c(c3)OCO4)cc2C(=O)N([C@H](C)CO)C[C@@H]1C	-0.13	18	1.2	5
C[C@H]1CN([C@@H](C)CO)C(=O)Cc2cc(NS(C)(=O)=O)ccc2O[C@H]1CN(C)CC1CC1	-0.12	-13	x	-12
C[C@H](CO)N1C[C@H](C)[C@@H](CN(C)Cc2ccc(Oc3ccccc3)cc2)Oc2ccc(NC(=O)C3CC3)cc2C1=O	-0.048	-5	-2.4	27
C[C@H]1CN([C@@H](C)CO)C(=O)c2cc(NC(=O)Nc3ccccc3)ccc2O[C@@H]1CN(C)CC1CCCCC1	-0.15	0	1.4	-20
O=C(CSc1nnnn1-c1ccccc1)Nc1cc(Cl)ccc1C(=O)O	x	-6	3.3	x
Cc1ccc(S(=O)(=O)N(C)C[C@H]2Oc3c(NC(=O)Nc4c(C)noc4C)cccc3C(=O)N([C@H](C)CO)C[C@H]2C)cc1	-0.3	-6	x	5
COc1ccc(NC(=O)Nc2ccc3c(c2)CC(=O)N([C@H](C)CO)C[C@H](C)[C@H](CN(C)C(=O)Nc2c(C)noc2C)O3)cc1	-0.2	-2	-0.1	-55
C[C@@H]1CN([C@@H](C)CO)C(=O)c2cccc(N(C)C)c2O[C@H]1CN(C)C(=O)Nc1ccc(F)cc1	0.26	-3	2.0	-20
Cc1cc(N(CC(=O)NC2CC3CCC2C3)S(C)(=O)=O)ccc1Br (stereo not drawn)	x	-12	-0.2	x
COc1ccc(CCNC(=O)c2cc3cc(Br)cc(OC)c3oc2=O)cc1OC	x	-19	-0.4	x
CNC[C@@H]1OCCCC[C@@H](C)Oc2ccc(NC(=O)NC3CCCCC3)cc2C(=O)N([C@H](C)CO)C[C@@H]1C	0.26	-14	2.0	-5
COc1ccc(NC(=O)N(C)C[C@@H]2Oc3ccc(NC(=O)Cn4cnnn4)cc3CC(=O)N([C@H](C)CO)C[C@@H]2C)cc1	-0.25	-10	x	x
C[C@@H]1CN([C@H](C)CO)C(=O)c2cc(NC(=O)Cn3cnnn3)ccc2O[C@@H]1CN(C)C	0.11	-3	1.7	-7
C[C@@H]1CN([C@@H](C)CO)C(=O)Cc2cc(NC(=O)Cn3cnnn3)ccc2O[C@@H]1CN(C)Cc1ccc2c(c1)OCO2	0.21	-7	0.6	-49
C[C@H]1CN([C@@H](C)CO)C(=O)c2cc(NS(=O)(=O)c3cn(C)cn3)ccc2O[C@H]1CN(C)Cc1ccc(C(=O)Nc2ccccc2N)cc1	-0.19	-9	1.9	x
CS(=O)(=O)N(CC(=O)NC1CCCCC1)c1ccc(F)cc1	x	-13	0.0	x
COc1ccc(S(=O)(=O)Nc2cccc3c2O[C@H](CN(C)C(=O)Nc2c(C)noc2C)[C@H](C)CN([C@@H](C)CO)C3=O)cc1	-0.52	3	0.5	-13
Cn1c(COc2cccc3cccnc23)nnc1SCC(N)=O	x	0	-0.2	x
Cc1ccc(S(=O)(=O)N(C)C[C@@H]2Oc3c(NC(=O)C4CCOCC4)cccc3C(=O)N([C@H](C)CO)C[C@H]2C)cc1	-0.31	-10	2.2	3
CN1C2CCC1CC(NC(=O)Cc1ccccc1F)C2 (stereo not drawn)	0.17	6	-0.4	1
Cc1cc(I)ccc1NC(=O)CN(c1cccc(F)c1)S(C)(=O)=O	x	12	0.7	x
C[C@@H]1CN([C@@H](C)CO)C(=O)c2cccc(NS(=O)(=O)c3cccs3)c2O[C@@H]1CN(C)CC1CC1	0.056	-5	1.1	-21
COC(=O)C1=CO[C@@H](O[C@@H]2O[C@H](CO)[C@@H](O)[C@H](O)[C@H]2O)[C@@H]2[C@@](C)(O)[C@@H](O)C[C@]12O	-0.68	-10	2.6	-16

Given in markdown: part of the list above.
| molecule | YB-1 expression | MITF inh | PD-1 reverse act | Shh pathway inh |
| --- | --- | --- | --- | --- |
| Cc1ccc(S(=O)(=O)N(C)C[C@H]2Oc3c(NC(=O)Nc4c(C)noc4C)cccc3C(=O)N([C@H](C)CO)C[C@H]2C)cc1 | -0.3 | -6 | x | 5 |
| C[C@H]1CN([C@@H](C)CO)C(=O)c2cc(NC(=O)Nc3ccccc3)ccc2O[C@@H]1CN(C)CC1CCCCC1 | -0.15 | 0 | 1.4 | -20 |

The list goes on:
SMILES	YB-1 expression	MITF inh	PD-1 reverse act	Shh pathway inh
O=C(CSc1nnc(-c2ccc(Cl)cc2)o1)Nc1ccccc1C(F)(F)F	x	-37	1.7	x
Cc1noc(C)c1S(=O)(=O)Nc1ccc2c(c1)CC(=O)N([C@H](C)CO)C[C@@H](C)[C@@H](CN(C)C(=O)Nc1cccc3ccccc13)O2	0.68	12	-3.0	21
Cc1cc(=S)nc(-c2ccccn2)[nH]1	0.28	12	-5.3	17
C[C@@H]1CN([C@H](C)CO)C(=O)Cc2cc(NC(=O)NC3CCCCC3)ccc2O[C@@H]1CN(C)C(=O)Nc1cccc2ccccc12	-0.17	2	-0.1	u
COC(=O)COc1cccc(NC(=O)c2ccc(NC(=O)c3ccco3)cc2)c1	x	3	-4.8	x
CCc1c(C)sc(NC(=O)COc2ccc(Cl)cc2)c1C(N)=O	x	-42	0.6	x
COc1ccc(NC(=O)CN(C)S(=O)(=O)c2ccc(C)cc2)c([N+](=O)[O-])c1	x	-5	2.9	x
COc1ccc(C(=O)C(C)Oc2cccc(NC(=O)c3ccc([N+](=O)[O-])cc3)c2)cc1 (stereo not drawn)	x	66	-0.4	x
Cc1noc(C)c1NC(=O)Nc1ccc2c(c1)CC(=O)N([C@H](C)CO)C[C@H](C)[C@H](CN(C)S(=O)(=O)c1ccc(Cl)cc1)O2	0.16	5	x	x
O=C(CSc1nc(O)cc(=O)[nH]1)Nc1cccc(C(F)(F)F)c1	x	-3	2.7	x
C[C@H]1CN([C@@H](C)CO)C(=O)Cc2cc(NC(=O)C3CCCCC3)ccc2O[C@H]1CN(C)Cc1ccc(-c2ccccc2)cc1	0.032	13	-3.6	10
CSC1=N/C(=C\c2ccc(Cl)cc2)C(=O)N1CCc1c[nH]c2ccccc12	-0.094	2	-0.6	32
S=c1[nH]nc(SCC2CC2)s1	-0.017	-39	-2.5	x
COc1cccc2cc(C(=O)Nc3cccc(Cn4cccn4)c3)c(=O)oc12	x	-34	-1.4	x
CC1CCC(C(C)C)C(=O)/C1=C/c1ccc(N)cc1 (stereo not drawn)	-0.43	-76	0.6	x
COc1cc(OC)c(NC(=O)COc2ccc([N+](=O)[O-])cc2)cc1Cl	x	-3	-0.5	x
COc1ccc(NC(=O)N(C)C[C@@H]2Oc3ccc(NS(=O)(=O)c4ccc(Cl)cc4)cc3C(=O)N([C@H](C)CO)C[C@H]2C)cc1	0.051	-9	-0.2	x
Cc1noc(C)c1NC(=O)N(C)C[C@@H]1Oc2ccc(NC(=O)c3ccncc3)cc2CC(=O)N([C@@H](C)CO)C[C@@H]1C	-0.39	-8	1.7	-50
Cc1noc(C)c1NC(=O)Nc1cccc2c1O[C@@H](CN(C)Cc1ccc(Oc3ccccc3)cc1)[C@H](C)CN([C@H](C)CO)C2=O	-0.09	11	-0.6	45
Cc1cc(Br)c(NC(=O)CSc2nnc(-c3ccccc3)o2)cc1C	x	0	-1.4	x
C[C@H](CO)N1C[C@H](C)[C@@H](CN(C)S(=O)(=O)c2ccc(F)cc2)Oc2c(NC(=O)Nc3ccc4c(c3)OCO4)cccc2C1=O	0.32	6	2.7	13
O=C(c1cccc(NS(=O)(=O)c2cccc([N+](=O)[O-])c2)c1)N1CCOCC1	x	0	1.2	x
CC1C(=O)C(=O)[C@@H]2O[C@@H]2C1=O (stereo partly drawn)	-1.9	-4	-0.1	u
COc1ccc(S(=O)(=O)N(C)C[C@@H]2Oc3ccc(NC(=O)Cc4ccccc4)cc3CC(=O)N([C@H](C)CO)C[C@H]2C)cc1	-0.088	-5	-0.8	-15
C[C@H](CO)N1C[C@H](C)[C@H](CN(C)Cc2ccc3c(c2)OCO3)Oc2ccc(NC(=O)Nc3ccc4c(c3)OCO4)cc2C1=O	0.02	1	0.2	19
CNC[C@@H]1Oc2ccc(NC(=O)c3ccncc3)cc2C(=O)N([C@H](C)CO)C[C@H]1C	0.47	-12	0.2	-20
C[C@@H]1CN([C@@H](C)CO)C(=O)Cc2cc(NC(=O)C3CC3)ccc2O[C@@H]1CN(C)Cc1ccncc1	0.092	-2	x	-10
Cc1ccc(NC(=O)CSc2nnc(-c3ccccc3F)n2C)cc1[N+](=O)[O-]	x	39	0.3	x
CC/C=C/c1ccc(C)cc1/C=C/CCCC(=O)O	-0.47	-27	3.1	-4
Cc1noc(C)c1NC(=O)N(C)C[C@H]1Oc2c(NC(=O)C3CC3)cccc2C(=O)N([C@H](C)CO)C[C@H]1C	-0.24	-3	1.0	8

Next part, overlapping the part above by 4 compounds.
SMILES	YB-1 expression	MITF inh	PD-1 reverse act	Shh pathway inh
C[C@@H]1CN([C@@H](C)CO)C(=O)Cc2cc(NC(=O)C3CC3)ccc2O[C@@H]1CN(C)Cc1ccncc1	0.092	-2	x	-10
Cc1ccc(NC(=O)CSc2nnc(-c3ccccc3F)n2C)cc1[N+](=O)[O-]	x	39	0.3	x
CC/C=C/c1ccc(C)cc1/C=C/CCCC(=O)O	-0.47	-27	3.1	-4
Cc1noc(C)c1NC(=O)N(C)C[C@H]1Oc2c(NC(=O)C3CC3)cccc2C(=O)N([C@H](C)CO)C[C@H]1C	-0.24	-3	1.0	8
CC1=C[C@@H](O)[C@H]2C(C)(C)CCC[C@]2(C)[C@@]1(O)CO	-0.45	x	x	-38
Cc1noc(C)c1S(=O)(=O)Nc1cccc2c1O[C@@H](CN(C)C(=O)Nc1ccc(F)cc1)[C@@H](C)CN([C@H](C)CO)C2=O	-0.31	-5	-0.1	-9
C[C@H](CO)N1C[C@H](C)[C@H](CN(C)S(=O)(=O)c2cn(C)cn2)Oc2c(NC(=O)c3ccc(-c4nccs4)cc3)cccc2C1=O	0.17	-4	-0.1	-11
Cc1nnc(SCC(=O)Nc2c(C)n(C)n(-c3ccccc3)c2=O)s1	x	2	0.6	x
Cc1cc(C(=O)Nc2cccc3c2O[C@@H](CN(C)Cc2ccc(Cl)c(Cl)c2)[C@H](C)CN([C@H](C)CO)C3=O)n(C)n1	0.055	13	-5.7	33
C[C@@H]1CN([C@H](C)CO)C(=O)c2cc(NS(=O)(=O)c3ccc(Cl)cc3)ccc2O[C@H]1CN(C)C(=O)Nc1ccc(C(F)(F)F)cc1	0.5	0	-1.1	x
COc1ccc(-c2oc3cc(OC)c(OC)c(O)c3c(=O)c2OC)cc1OC	-0.31	-33	1.1	39
Cc1ccc(S(=O)(=O)N(C)C[C@H]2Oc3ccc(NS(=O)(=O)c4cn(C)cn4)cc3C(=O)N([C@H](C)CO)C[C@@H]2C)cc1	-0.2	2	0.4	-23
COC(=O)c1cccc2nc3c(C(C)O)cccc3nc12 (stereo not drawn)	-0.065	1	1.1	-7
COc1ccc(NC(=O)CNC(=O)c2ccc(OC)c(OC)c2)cc1Cl	x	-8	0.2	x
O=C(CSc1nnc(-c2cccnc2)n1-c1cccc(C(F)(F)F)c1)c1ccc(F)cc1	x	22	-1.5	x
C[C@H]1CN([C@@H](C)CO)C(=O)c2cccc(NC(=O)CCCCCC(=O)Nc3ccccc3N)c2O[C@H]1CN(C)C(=O)Nc1cccc2ccccc12	-0.68	-10	0.9	x
C[C@@H]1CN([C@H](C)CO)C(=O)c2cccc(NC(=O)Nc3ccccc3)c2O[C@@H]1CN(C)S(=O)(=O)c1ccccc1	0.013	-8	x	-49
FC(F)(F)c1cccc(NC(=S)Nc2cccnc2N2CCC(C(F)(F)F)CC2)c1	0.039	19	-2.9	-2
CC1CCN(S(=O)(=O)c2cccc(C(=O)N(Cc3ccccc3)c3ccccn3)c2)CC1	x	29	-0.4	x
N#C/C(=C\c1ccsc1)S(=O)(=O)c1ccc(C(F)(F)F)cn1	-0.35	12	-0.6	-35
N=c1nc(-c2ccccc2)ccn1O	-0.35	4	-0.6	x

High-throughput results from PubChem.
